GLD-1 TGE inh: GLD-1/TGE RNA complex disruptors, primary screen, biochemical, fluorescence polarization; AID 2280, 2010; inhibition, % at 5.96 µM; purified GLD-1 + fluorescein TGE RNA; Female germline-specific tumor suppressor gld-1 (Caenorhabditis elegans), Q17339; hit rate 0.44% among 320,000;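 active = percent inhibition above a per-plate cutoff, the plate mean of test compounds plus 3 SD, cut at about 30% in these data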;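 also: 0% = DMSO wells with GLD-1 and probe and 100% = wells lacking GLD-1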
MEX-5 binding: MEX-5 zinc finger RNA-binding disruptors – biochemical, C. elegans, fluorescence polarization, MLPCN library, primary screen | hit rate 0.38% among 300,000 | Zinc finger protein mex-5 (Caenorhabditis elegans), Q9XUB2 | MEX-5/FITC-TCR2 RNA binding; stronger effect = lower value | activity score (negative = inhibition of binding), % at 10 µM;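 active = inhibition past about -25% in most replicates, and total fluorescence under double the plate's negative control median, limit read from the data; inconclusive = replicates evenly split on the limit, or fluorescence at least double controls; inactive = too little inhibition in most replicates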;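 also: 0% = DMSO and -100% = 5 µM competing unlabeled TCR2 RNA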
VLA-4 inh: inhibition in human VLA-4 binding assay, primary screen, VLA-4 allosteric modulator project, MLPCN library, flow cytometry, VLA-4 expressing cells. Integrin alpha-4 (Homo sapiens), P13612. ligand binding flow cytometry. inhibition, % (about 7 µM as worked out from the volumes in the protocol). hit rate 0.2% among 330,000; in the data active = inhibition above about 50%
Bcl-xL primary: inhibitors of human Bcl-xL, primary screen, biochemical, fluorescence polarization, HTS; Bcl-2-like protein 1 (Homo sapiens), Q07817; GST-Bcl-xL / FITC-Bim BH3 peptide fluorescence polarization; inhibition, % at 10.9 µM; hit rate 0.7% among 320,000;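 active = inhibition above the mean of all tested compounds plus 3 SD, cutoff set per campaign, cut at about 30% in these data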;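 also: 0% = DMSO wells and 100% = unlabeled Bim-BH3 peptide competitor; inhibitors lower millipolarization by displacing the labeled peptide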
Target sequence (Q07817 whole entry, looked up): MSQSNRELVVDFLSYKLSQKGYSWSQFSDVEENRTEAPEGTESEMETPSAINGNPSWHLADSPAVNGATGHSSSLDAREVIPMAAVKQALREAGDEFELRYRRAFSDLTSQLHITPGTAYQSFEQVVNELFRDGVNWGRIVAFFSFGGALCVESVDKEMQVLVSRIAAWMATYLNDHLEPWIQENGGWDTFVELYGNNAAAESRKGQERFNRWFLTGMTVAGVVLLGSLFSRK
GRK2 inh: compounds blocking aptamer binding on GRK2 – biochemical, human GRK2, bead flow cytometry, HTS, primary screen; hit rate 0.59% among 330,000; inhibition of aptamer binding, % at 10 µM; AID 488847, 2010; FAM-aptamer displacement from GRK2; Beta-adrenergic receptor kinase 1 (Homo sapiens), P25098;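 active = inhibition of aptamer binding above 40%, roughly 3 SD of noise, on plates passing a quality check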;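 also: median bead fluorescence of bound FAM aptamer so fluorescent compounds give negative values; no value below 0 was filed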
Target sequence (P25098 whole entry, looked up): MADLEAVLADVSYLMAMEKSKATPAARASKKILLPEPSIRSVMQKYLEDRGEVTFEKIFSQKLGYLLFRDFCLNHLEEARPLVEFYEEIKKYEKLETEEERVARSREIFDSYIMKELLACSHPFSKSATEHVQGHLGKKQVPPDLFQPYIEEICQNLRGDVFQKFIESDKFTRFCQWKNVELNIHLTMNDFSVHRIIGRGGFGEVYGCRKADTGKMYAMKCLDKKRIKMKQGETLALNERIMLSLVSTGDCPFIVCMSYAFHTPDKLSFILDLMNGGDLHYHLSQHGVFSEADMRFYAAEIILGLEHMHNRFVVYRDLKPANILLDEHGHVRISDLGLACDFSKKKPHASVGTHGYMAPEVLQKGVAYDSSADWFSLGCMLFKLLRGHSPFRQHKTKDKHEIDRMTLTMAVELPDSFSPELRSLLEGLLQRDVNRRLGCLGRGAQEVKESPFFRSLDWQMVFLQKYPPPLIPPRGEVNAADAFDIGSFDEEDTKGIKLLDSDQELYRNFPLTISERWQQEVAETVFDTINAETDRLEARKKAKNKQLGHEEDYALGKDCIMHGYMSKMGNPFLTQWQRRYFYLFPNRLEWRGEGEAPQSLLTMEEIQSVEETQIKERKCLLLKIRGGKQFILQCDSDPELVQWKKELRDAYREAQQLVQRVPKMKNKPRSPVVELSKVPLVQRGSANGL
MCL1 BIM primary: inhibitors of MCL1 binding to BIM-BH3, primary screen, biochemical, fluorescence polarization. hit rate 0.68% among 320,000. AID 2057, 2009. inhibition, % at 10.9 µM. GST-MCL1 / FITC-Bim-BH3 fluorescence polarization;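 active = inhibition above the mean inhibition of all tested compounds plus 3 SD, set per campaign, cut at about 40% in these data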;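 also: 0% = DMSO wells and 100% = unlabeled Bim-BH3 peptide control; higher means more loss of mP so more displacement of Bim peptide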
Efflux pump inh: inhibitors of Candida efflux pumps in yeast, primary screen, S. cerevisiae, Nile Red, multiplex | inhibition, % at 10 µM | AID 485275, 2010 | S. cerevisiae Candida pump triplex | hit rate 0.44% among 330,000;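 active = plate passing quality check with inhibition over a set limit, or well fluorescence over plate mean plus 4 SD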;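 also: Nile Red retained in pooled yeast measured as flow cytometry median fluorescence; 0% = buffer negative control and 100% = Enniatin B positive control; higher means more Nile Red kept so more efflux inhibition; some compounds called inactive have numbers as strong as hits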
Fam108B counter: mouse Fam108B serine hydrolase inhibitors, primary screen, counter-screen for RBBP9 inhibitor project, biochemical, fluorescence polarization | recombinant Fam108B, FP-Rh probe fluorescence polarization | inhibition, % at 9.51 µM | hit rate 0.33% among 300,000 | AID 1947, 2009;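 active = inhibition above the screen mean inhibition plus 3 SD, computed separately per campaign, cut at about 18% in these data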;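 also: inhibitors lower polarization as less probe binds the enzyme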
An asterisk follows results filed as active; ? = inconclusive; nt = not tested or not shown. A portion of the library; count on the stated rates, not on these rows.

SMILES	GLD-1 TGE inh	MEX-5 binding	VLA-4 inh	Bcl-xL primary	GRK2 inh	MCL1 BIM primary	Efflux pump inh	Fam108B counter
O=C(CSc1nc(-c2ccccc2)c(-c2ccccc2)[nH]1)Nc1nccs1	4.6	2.9	-3.0	0.7	0.0	9.4	-0.1	4.4
O=S(=O)(Nc1nc2ccccc2nc1NCC1CCCO1)c1cc(Cl)ccc1Cl (centres undefined)	0.3	-1.4	5.5	6.6	1.0	4.9	-0.1	1.3
O=C1CCC(=O)N1c1nc2n(n1)C(c1ccccc1)C=C(c1ccc(Br)cc1)N2 (centres undefined)	28.5	-11.6	0.6	18.0	1.0	29.3	0.1	-6.8
Cc1c(C=O)c2ccccn2c1C(=O)c1ccccc1Cl	-4.6	-2.5	5.6	-4.1	0.0	1.2	0.1	0.1
CCOc1ccc(NC(=O)Nc2ccc3nccnc3c2)cc1	1.2	0.7	0.6	6.3	0.0	3.4	0.0	7.5
CC(C)NC(=O)C1CCN(c2ccc(S(=O)(=O)N3CCOCC3)cc2Cl)CC1	3.8	-1.4	2.5	-0.2	0.0	-2.8	-0.1	-3.0
O=S(=O)(Nc1nc2ccccc2nc1NCc1ccco1)c1ccc(F)cc1	1.5	1.7	-9.8	4.6	2.0	2.5	0.2	-0.9
CCN1CCc2c(sc(NC(=S)NC(=O)c3ccccc3)c2C#N)C1	-33.7	1.2	10.3	-3.0	1.0	-8.7	0.2	0.4
CN(C)N1C(N)=C(C#N)C(c2cccc3ccccc23)C2=C1CC(c1ccccc1)CC2=O (centres undefined)	5.3	-0.7	-11.4	1.4	0.0	4.1	-0.2	-3.9
O=C(NCc1cccs1)C1CCN(S(=O)(=O)c2cccs2)CC1	1.5	-1.8	-2.4	0.2	0.0	0.1	-0.2	1.3
CCOc1ccc(-c2cccc(NS(=O)(=O)c3ccccc3[N+](=O)[O-])c2)nn1	-9.4	1.3	0.5	-0.3	3.0	-2.1	0.2	-5.8
COc1ccc(-c2ccc(NC(=O)c3ccc(Br)o3)cc2)nn1	2.8	0.2	2.7	-6.6	0.0	-2.9	-0.1	-1.4
COc1ccc2cc(C(=O)N/N=C/c3cc(OC)c(OC)c(OC)c3)[nH]c2c1	4.5	-0.3	8.5	12.5	0.0	6.5	-1.0	12.4
COc1ccc(-c2cnnn2-c2ccc(NC(=O)c3ccco3)cc2)cc1OC	1.4	-1.5	-0.9	-0.6	0.0	-7.4	0.0	1.1
CC(NC(=O)COC(=O)CSCc1ccccc1)c1ccccc1 (centres undefined)	1.8	-1.5	-4.0	5.5	2.0	5.9	-0.1	1.3
CCC1CCCCN1CCCNC(=O)CCCNC(=O)Cn1cnc2sc3c(c2c1=O)CCCC3 (centres undefined)	-2.6	1.0	2.9	5.2	0.0	3.5	-0.1	0.2
COc1ccc(NC(=O)c2cccc(S(=O)(=O)N3CCCCC3)c2)c(OC)c1	0.4	-1.4	7.8	-1.9	1.0	2.2	0.0	0.2
O=c1cc(NC2CCCCC2)c2ccccc2o1	1.0	-0.7	4.6	2.2	0.0	0.5	-0.1	4.0
COC(=O)CSc1nc(N2CCCCC2)c2c(c1C#N)CCCC2	-3.3	2.1	0.0	0.4	0.0	-0.4	0.0	2.3
CCOC(=O)N1CCN(C(=O)c2ccc3c(c2)NC(=O)/C(=C\c2ccc(OC)c(OC)c2)S3)CC1	1.6	?	-1.8	6.0	8.0	10.1	0.1	2.8
C[C@H](NC(=O)c1nc[nH]c1C(=O)N[C@@H](C)C(=O)OC(C)(C)C)C(=O)OCc1ccccc1	4.6	0.6	9.1	3.1	1.0	5.7	0.1	2.7
c1ccc2c(CSCc3nc4ccccc4[nH]3)cccc2c1	2.9	-0.5	0.7	-1.6	3.0	6.0	0.0	-6.3
FC(F)(F)c1cnc(-c2cnc3c(-c4ccc(Cl)cc4)cnn3c2)c(Cl)c1	4.5	-0.2	5.5	2.4	0.0	2.8	0.1	-7.6
COc1ccc(CNC(=O)c2onc(C)c2Cl)cc1	-1.8	1.8	3.3	-4.3	0.0	-7.9	0.3	-0.4
O=c1cc(Nc2ccc3c(c2)OCCO3)[nH]c(=O)n1C1CCCCC1	-3.0	-0.9	-10.4	0.3	3.0	-1.0	-0.1	5.5
CN1CCN(c2cc(-c3ccccc3)nc3cc(-c4ccc(F)cc4)nn23)CC1	-3.7	1.1	9.8	-1.8	0.0	-1.3	0.8	-1.4
COc1ccc(/C=C/C(=O)NC(=S)N2CCCC(C(N)=O)C2)cc1 (centres undefined)	3.4	0.6	10.3	3.0	2.0	10.2	0.0	-3.9
Cc1ccc(S(=O)(=O)N2CCN(C(=O)CCc3nc4ccccc4c(=O)[nH]3)CC2)c(C)c1	0.5	-1.4	-1.3	2.9	2.0	1.2	-0.1	0.2
C[C@H](NC(=O)c1nc[nH]c1C(=O)NC1CCN(C(=O)OC(C)(C)C)CC1)C(=O)OCc1ccccc1	11.2	3.5	-23.9	1.6	0.0	1.7	-0.1	-0.2
COc1cccc(NCc2cc(=O)oc3cc(C)c(C(C)C)cc23)c1	1.3	-1.9	-6.7	2.2	0.0	5.4	0.0	9.2
N#Cc1cc2cc3c(cc2nc1NCCNC(=S)NCCCN1CCOCC1)OCO3	-2.1	-2.5	0.3	7.0	0.0	6.7	0.0	-0.9
O=[N+]([O-])c1ccccc1S(=O)(=O)Nc1ccc(-c2ccc(N3CCOCC3)nn2)cc1	2.1	-3.3	-5.0	1.2	7.0	4.8	-0.1	4.1
C[C@H](NC(=O)c1nc[nH]c1C(=O)NCC(=O)OC(C)(C)C)C(=O)OCc1ccccc1	0.1	1.1	-8.3	1.3	0.0	0.9	0.0	3.5
Cc1ccc(C)c(Cn2nnc3c(=O)[nH]c(C4CCCN(C(=O)c5cccs5)C4)nc32)c1 (centres undefined)	7.0	0.7	-10.3	-3.9	0.0	4.8	0.1	5.2
COc1ccc(-c2csc(N3CCC(c4ccccc4)C3)n2)cc1 (centres undefined)	-3.9	3.0	-1.8	2.5	2.0	1.3	0.0	1.5
CC(C)(C)c1cc(NS(=O)(=O)c2ccc(Br)s2)no1	6.3	1.4	3.8	-0.4	16.0	0.0	0.0	-0.4
CCOC(=O)c1cnc(SCc2nc(N)nc(Nc3ccc(OC)cc3)n2)nc1N	5.2	-1.8	-0.5	2.8	3.0	2.3	0.1	0.8
CC(C)(C)c1cnnn1-c1ccc(/C=N/Nc2ccc([N+](=O)[O-])cc2)cc1	-5.4	-1.7	2.6	-7.7	0.0	-35.7	0.2	5.5
COc1cc(C)c(C)cc1S(=O)(=O)N1CCN(Cc2ccc3c(c2)OCO3)CC1	3.1	-0.3	4.3	5.0	1.0	2.8	-0.1	2.3
COc1ccccc1NS(=O)(=O)c1cc(C)ccc1C	-3.0	1.1	5.9	-2.8	0.0	-5.0	0.1	1.3
COc1ccc(OC)c(S(=O)(=O)Nc2cccc3ccc(O)cc23)c1	4.3	-1.9	10.5	1.4	3.0	0.4	0.3	3.6
Cc1cc(F)ccc1S(=O)(=O)Nc1nc2ccccc2nc1Cl	7.7	-12.7	-8.3	10.1	1.0	14.8	-0.2	3.7
COC(=O)c1sccc1NC(=O)CSc1ccccc1NS(=O)(=O)c1cc(Cl)ccc1Cl	5.7	-0.7	-8.7	1.7	1.0	1.8	0.0	-1.3
COc1ccc(C2C3=C(Nc4ncnn42)c2ccccc2CCC3)cc1 (centres undefined)	-5.7	-0.4	0.8	8.3	0.0	4.7	-0.1	-3.2
Cc1ccc(C)c(S(=O)(=O)Nc2ccc3scnc3c2)c1	2.2	0.5	-14.0	1.1	4.0	8.2	0.0	-4.5
CCc1ccccc1NC(=O)c1ccccc1Sc1ccc([N+](=O)[O-])cc1Cl	6.6	2.1	1.6	8.9	3.0	7.4	-0.1	-4.4
Cc1ccc(C)c(CN2C(=O)c3ccccc3S(=O)(=O)c3ccc(C(=O)N4CCN(C)CC4)cc32)c1	3.7	0.3	5.4	4.6	1.0	7.2	0.0	6.2
Cc1ccccc1Nc1nc(N)nc(CSc2nc3ccccc3s2)n1	2.0	6.0	6.3	-1.9	0.0	-5.7	-0.5	-0.3
CC(C)OCCCNC(=O)COCC(=O)Nc1ccc(OCCc2ccccc2)cc1	-4.2	1.4	9.9	2.0	1.0	8.6	0.0	-0.7
CCCc1cc(-c2[nH]ncc2-c2ccc(C(=O)OCC)o2)c(O)cc1O	12.7	-2.5	-2.8	4.5	0.0	3.1	0.2	4.8
CCC(=O)N1CCc2cc(S(=O)(=O)NC(Cc3ccccc3)C(=O)NC3CCCCC3C)ccc21 (centres undefined)	0.2	2.2	-1.4	4.4	0.0	8.8	1.5	-3.1
CCCCn1c(-c2csc3ccccc23)n[nH]c1=S	2.9	nt	13.2	-23.2	4.0	-11.8	-0.1	-2.8
Cc1cnn(C(=O)c2cc(-c3ccccn3)nc3ccc(Cl)cc23)c1	0.8	0.5	-13.4	31.1*	1.0	27.5	-0.2	-1.5
COc1ccc(S(=O)(=O)N2CCC(C(=O)N[C@H](C(=O)N3CCCC3)C(C)C)CC2)cc1	2.4	0.5	9.3	5.6	3.0	4.0	-0.1	2.3
Cc1noc(C)c1S(=O)(=O)N1CCN(Cc2ccc3c(c2)OCO3)CC1	9.8	0.8	6.1	0.9	0.0	2.5	0.0	1.4
CN(CC(=O)Nc1cc(S(=O)(=O)N2CCCC2)ccc1Cl)Cc1ccc2c(c1)OCO2	5.0	nt	16.9	1.6	2.0	-1.9	0.5	nt
COc1cccc(OC)c1OCCOCCn1cnc2ccccc2c1=O	-3.9	0.7	4.7	-2.1	0.0	-1.8	0.1	1.1

Filtered by structure: the compounds so far containing an aryl thioether with sulfur outside any ring
SMILES	GLD-1 TGE inh	MEX-5 binding	VLA-4 inh	Bcl-xL primary	GRK2 inh	MCL1 BIM primary	Efflux pump inh	Fam108B counter
O=C(CSc1nc(-c2ccccc2)c(-c2ccccc2)[nH]1)Nc1nccs1	4.6	2.9	-3.0	0.7	0.0	9.4	-0.1	4.4
COC(=O)CSc1nc(N2CCCCC2)c2c(c1C#N)CCCC2	-3.3	2.1	0.0	0.4	0.0	-0.4	0.0	2.3
CCOC(=O)c1cnc(SCc2nc(N)nc(Nc3ccc(OC)cc3)n2)nc1N	5.2	-1.8	-0.5	2.8	3.0	2.3	0.1	0.8
COC(=O)c1sccc1NC(=O)CSc1ccccc1NS(=O)(=O)c1cc(Cl)ccc1Cl	5.7	-0.7	-8.7	1.7	1.0	1.8	0.0	-1.3
CCc1ccccc1NC(=O)c1ccccc1Sc1ccc([N+](=O)[O-])cc1Cl	6.6	2.1	1.6	8.9	3.0	7.4	-0.1	-4.4
Cc1ccccc1Nc1nc(N)nc(CSc2nc3ccccc3s2)n1	2.0	6.0	6.3	-1.9	0.0	-5.7	-0.5	-0.3

Screening data from PubChem.
